High-throughput results as filed in PubChem BioAssay.
PINK1 modulator = modulators of PINK1 expression; actives 0.2% (n = 410,000); Potency, µM (series often up to 76.6 µM), for the others: at the highest dose activation (PINK1 increase), hits mostly activators; AID 624263; PINK1 immunofluorescence, high-content cytometry, 24 h; active = well fitted activation curve with a large enough effect; inconclusive = small, poorly fitted or top-dose-only effect; inactive = flat fitted curve, though single readings scatter; cell line not stated here;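 note: potency is the fitted concentration of half-maximal effect; % of control where 0% means no effect; nearly all actives have a fitted effect of over 65% in size; a mitochondrial uncoupler was the plate control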
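Compound titrations (5 concentrations, 24 h) on a stable cell line; DMSO and CCCP controls. Endpoint: fixed-cell PINK1 immunofluorescence with mitochondrial, cell and nuclear markers, scanned by microplate cytometer.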
D2 agonist = agonists of human D2 dopamine receptor (beta-arrestin); activation, % (no concentration beside the values); AID 624465; DiscoveRx PathHunter D2 beta-arrestin, luminescence, 90 min; 100% = 57 uM dopamine signal; actives 0.084% (n = 360,000); in the data active = activation above about 40%; inconclusive = about 15% to 40%; inactive = below about 15%; note: compound concentration not given in the record; the text of the record calls up to 30% inactive
Target sequence (P14416 whole entry, looked up): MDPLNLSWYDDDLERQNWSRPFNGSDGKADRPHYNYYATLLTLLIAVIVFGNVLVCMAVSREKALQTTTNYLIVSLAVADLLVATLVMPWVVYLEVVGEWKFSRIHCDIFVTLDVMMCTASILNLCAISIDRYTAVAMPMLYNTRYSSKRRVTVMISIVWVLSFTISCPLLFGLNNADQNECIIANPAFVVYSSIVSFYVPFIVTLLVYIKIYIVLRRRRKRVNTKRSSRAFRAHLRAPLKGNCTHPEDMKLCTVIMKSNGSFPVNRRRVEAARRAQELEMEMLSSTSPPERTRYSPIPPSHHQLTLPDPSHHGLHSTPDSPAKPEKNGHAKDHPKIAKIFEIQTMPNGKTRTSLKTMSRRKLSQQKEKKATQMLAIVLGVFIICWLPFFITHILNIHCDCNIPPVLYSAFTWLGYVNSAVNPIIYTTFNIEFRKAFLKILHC
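Agonist mode: compounds alone added to overnight-plated D2 PathHunter cells for 90 min at 37 C, with 57 uM final dopamine (EC100) defining full response. Beta-arrestin recruitment detected by chemiluminescent reagent, read after 1 h at ambient temperature.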
D2 PAM = positive allosteric modulators of human D2 dopamine receptor. potentiation, % (concentration not given with the values). DiscoveRx D2 beta-arrestin cells, luminescence, 90 min; 100% = 57 uM dopamine signal. P14416. actives 0.23% (n = 360,000); active = potentiation of 50% or more; inconclusive = 30% to 50%; inactive = 30% or less;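 note: compound concentration not given in the record; tested on top of an EC20 dose of dopamine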
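PathHunter D2 cells, attached overnight at 37 deg C, received compound in DMSO plus dopamine at EC20 (50 nM final) for 90 min at 37 deg C. Beta-arrestin recruitment was read as luminescence after 1 h with detection reagent at ambient temperature.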
TRPML1 ag = activates the human TRPML1 channel; TRPML1-expressing cells, Ca2+ dye fluorescence, FDSS; host cell line not named in the record; reference of the full effect not given here; Q9GZU1; activation, % (concentration not given with the values); actives 0.12% (n = 410,000); in the data active = activation above about 50%; inconclusive = about 30% to 50%; inactive = below about 30%; note: 0% is about no effect; the text of the record puts the active cut at 80%
Target sequence (Q9GZU1 whole entry, looked up): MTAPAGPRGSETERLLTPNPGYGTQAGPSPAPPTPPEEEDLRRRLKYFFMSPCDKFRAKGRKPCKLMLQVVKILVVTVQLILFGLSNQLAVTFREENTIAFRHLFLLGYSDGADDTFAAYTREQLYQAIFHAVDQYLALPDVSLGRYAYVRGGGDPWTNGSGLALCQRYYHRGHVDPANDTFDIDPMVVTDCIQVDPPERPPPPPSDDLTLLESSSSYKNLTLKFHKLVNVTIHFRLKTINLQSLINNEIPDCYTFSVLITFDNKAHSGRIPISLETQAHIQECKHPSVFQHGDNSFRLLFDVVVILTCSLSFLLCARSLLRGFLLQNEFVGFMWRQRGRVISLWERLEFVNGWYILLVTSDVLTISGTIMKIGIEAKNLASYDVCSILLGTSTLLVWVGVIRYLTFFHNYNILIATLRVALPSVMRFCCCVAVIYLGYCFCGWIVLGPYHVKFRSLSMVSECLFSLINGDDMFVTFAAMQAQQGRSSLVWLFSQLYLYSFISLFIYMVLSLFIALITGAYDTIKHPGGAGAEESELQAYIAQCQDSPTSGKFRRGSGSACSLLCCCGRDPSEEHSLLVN
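In this qHTS format, compounds were pin-transferred onto Ca8-dye-loaded TRPML1-DL cells induced with Tet overnight, and intracellular Ca2+ fluorescence was recorded kinetically for 110 s after a 10 s baseline. A subsequent 4uM final 54-4 (EC80) addition followed by a second 110 s read served as the antagonist phase.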
Six1-Eya2 inh = blocks human Six1 binding to Eya2; activity change, % (test concentration not listed); AlphaScreen GST-Six1/His-Eya2 binding, biochemical; hits give low values; control for the full effect not named in the record; actives 0.56% (n = 360,000); AID 651725; in the data active = activity change below about -65%; inconclusive = about -30% to -65%; inactive = above about -30%; note: % is set by controls: 0 for no effect and ±100 for the full control effect; compound concentration not given in the record
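Six1/Eya2 binding was read as AlphaScreen signal after compounds were pinned into GST-Six1 plus His-tagged Eya2 (5X stock 250/500 nM) in pH 8.0 Tris/NaCl/TCEP buffer, beads added, then incubated 1 h, 37 C, dark.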
CtBP-E1A inh = CtBP/E1A binding inhibition; AlphaScreen GST-E1A/His-CtBP binding, 1536-well; hits give low values; control for the full effect not named in the record; actives 0.49% (n = 340,000); activity change, % (concentration not given with the values); in the data active means activity change below about -65%; inconclusive means about -30% to -65%; inactive means above about -30%; note: % is set by controls: 0 for no effect and ±100 for the full control effect
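Protein mix (5X: 125 nM each GST-E1A, His-CtBP) was incubated with pinned compound 2 h at 37 deg C in dark, in 50 mM Tris pH 8.0 buffer with 300 mM NaCl. Glutathione donor and nickel acceptor beads followed; AlphaScreen signal read after 1 h.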
* hit, by the source's call; ? = inconclusive; nt = not tested or not shown; & = joins results of further samples; [ ] = dose if it differs, or a comment.

SMILES | PINK1 modulator | D2 agonist | D2 PAM | TRPML1 ag | Six1-Eya2 inh | CtBP-E1A inh
Cc1ccc(C(C(=O)NCC2CCCO2)N(C(=O)c2snc(C(N)=O)c2N)c2ccccc2F)o1 (stereo not drawn) | 3.2% | -1.3 | -3 | 0.2 | -13 | -13
O=c1[nH]c(=S)[nH]cc1Oc1ccc(Cl)cc1 | 1.4% | -5.8 | -4 | 1.1 | 0 | 1
Cc1cccc(N(CC(=O)Nc2ccc(-c3nc4ccc(C)cc4s3)cc2)S(C)(=O)=O)c1 | 3.7% | -2.3 | -1 | 0.7 | -1 | -1
CCc1ccc(OCC(=O)Nc2ccc(-c3nc4ccccc4o3)c(O)c2)cc1 | 0.7% | -2.2 | -3 | -0.6 | 8 | 3
S=C(NCCc1ccccc1)NCc1ccccc1Cl | -1.7% | 1.4 | -12 | -0.8 | 3 | -1
C=CC[C@@H](CC(=O)N(CCO)Cc1ccccc1)C(=O)N[C@H](C)COC(=O)[C@@H](CC=C)Cc1ccc(F)cc1 | 0.3% | 1.4 | 10 | 1.7 | 1 | -3
Cc1ccccc1OCc1nnc(SCc2cc(=O)[nH]c3ccccc23)o1 | 6.0%[38.3 µM] | -0.8 | -9 | -0.4 | -1 | -1
COc1ccc(NC(=O)c2cc(C3CCCCN3S(=O)(=O)c3c(C)noc3C)on2)c(C)c1 (stereo not drawn) | 1.1% | -2.8 | -8 | -0.7 | 2 | 2
COc1ccccc1NS(=O)(=O)c1cccc(C(=O)N2CCN(Cc3ccc4c(c3)OCO4)CC2)c1 | 1.2% | -3.2 | -18 | 0.7 | 15 | 8
CN(c1ccc(OCC(=O)O)cc1)S(=O)(=O)c1ccc2ccccc2c1 | 0.8% | 1.2 | -2 | -0.8 | 3 | nt
O=Cc1c[nH]c2ncccc12 | 0.1% | -1.1 | -14 | 0.2 | -1 | nt
Cc1ccc(S(=O)(=O)N2CCCCC2)cc1NC(=O)Cn1ncc(Cl)c(Cl)c1=O | -1.2% | -2.2 | 6 | 1.3 | -1 | 6
Cc1ccc(N2C(=O)C(O)(C(F)(F)F)C3=C2CC(C)(C)CC3=O)cc1 (stereo not drawn) | 3.5% | -1.1 | -5 | -0.6 | 0 | 5
Cc1ccc(NC(=O)Cn2nnc(C(=O)NCc3cccs3)c2N)cc1Cl | ? | -2.4 | -4 | -0.7&0.2 | 0 | 6
Cc1ccccc1C(=O)NCCCCc1ccccc1 | 2.6% | -0.6 | -7 | -0.7 | 9 | 7
CSC[C@H]1CN(c2ccc(Br)cc2)C(=O)[C@@H]1CC(=O)Nc1ccc(Br)cc1 | 6.4% | -2.3 | nt | nt | 0 | -11
O=[N+]([O-])c1ccccc1-c1ccc(C(=S)N2CCCCC2)o1 | 1.0% | 0.0 | -12 | 0.9 | ? | ?
COc1ccccc1OCCNC(=O)CNC(=O)c1ccc(C(C)(C)C)cc1 | -0.9% | -0.5 | -14 | -0.5 | -5 | -14
Cn1c(SCC(=O)Nc2ccc(N3CCOCC3)cc2)nnc1C(F)(F)F | -0.2% | -1.0 | -2 | -0.4 | 0 | 10
CN1CCc2cc3c(c4c2C1CC41CCC(=NO)CC1)OCO3 (stereo not drawn) | 0.2% | -1.6 | -33 | 0.9 | -1 | 3
COc1ccc(CN2CN(c3ccc(Cl)cc3)C(=O)N(n3cnnc3)C2)cc1 | 3.6%[38.3 µM] | -1.8 | 5 | -0.2 | 1 | 0
CCCC1OC23CCCCC2C(C#N)(C#N)C1(C#N)C(=N)O3 (stereo not drawn) | -1.6% | 1.3 | 0 | 1.1 | 9 | 0
COC(=O)Cc1cc(=O)n2[nH]cnc2n1 | -0.5% | 0.1 | -15 | -0.3 | 3 | 2
COc1cc(C(=O)NN2C(=O)NC3(CCC(C)CC3)C2=O)ccc1OC(F)F (stereo not drawn) | 2.2% | -0.6 | -8 | 1.3 | 3 | -5
CC(=O)Nc1ccc(S(=O)(=O)Nc2cccc(NC(=O)c3ccco3)c2)cc1 | -2.1% | -0.6 | 1 | -0.6 | -7 | -1

Exported comma-delimited: three of the compounds above.
mol,PINK1 modulator,D2 agonist,D2 PAM,TRPML1 ag,Six1-Eya2 inh,CtBP-E1A inh
O=Cc1c[nH]c2ncccc12,0.1%,-1.1,-14,0.2,-1,nt
CN1CCc2cc3c(c4c2C1CC41CCC(=NO)CC1)OCO3 (stereo not drawn),0.2%,-1.6,-33,0.9,-1,3
COc1ccccc1OCCNC(=O)CNC(=O)c1ccc(C(C)(C)C)cc1,-0.9%,-0.5,-14,-0.5,-5,-14

Following part.
SMILES | PINK1 modulator | D2 agonist | D2 PAM | TRPML1 ag | Six1-Eya2 inh | CtBP-E1A inh
COCCn1c(SCC(=O)Nc2cc(C)on2)nnc1-c1ccco1 | 0.1% | -1.8 | -11 | -0.4 | -2 | -2
CC12CCC(C(=O)NCc3ccc4c(c3)OCO4)(CC1=O)C2(C)C (stereo not drawn) | -1.5% | -1.5 | -20 | -0.6 | 16 | 6
C=CCn1c(=O)c2ccccc2n2c(SCC(=O)NCCc3ccccc3)nnc12 | -0.7% | 0.3 | 9 | -0.9 | 0 | 2
C=CCCC(=O)N(C)CCO | 0.5% | -2.2 | -5 | -0.2 | 4 | 10
Cc1sc2nc(CSc3ccccc3)nc(N3CCC(C(N)=O)CC3)c2c1C | -2.0% | 3.0 | -6 | 1.7 | -7 | nt
Cc1nc2ccccc2c(=O)n1/N=C/c1ccc(O)c(O)c1O | -0.7% | 48* | 10 | 0.3 | -25 | nt
COC(=O)C(OC(=O)c1ccc(OC)cc1)C(=O)OC | 1.8%[38.3 µM] | -0.9 | -2 | -0.2 | 2 | -5
O=C1c2ccccc2NC(c2ccc(-c3cccc(Cl)c3)o2)N1O (stereo not drawn) | 4.0%[38.3 µM] | -2.9 | -2 | -0.3 | -2 | 6
C=CCn1c(Oc2cc(C)ccc2C)nc2c1c(=O)n(C)c(=O)n2C | nt | 0.4 | 16 | 1.1 | -6 | 5
COc1ccc2c(c1)CCC/C2=N\Nc1nc(C(=O)NN)cs1 | 2.6% | 13 | 5 | 3.1 | -1 | 17
O=C1CC(SCc2nc3ccccc3[nH]2)C(=O)N1c1cccc(F)c1 (stereo not drawn) | -0.2% | -9.2 | -9 | 1.2 | -6 | -22
CN(Cc1c(C(=O)N/N=C/c2ccccc2O)nnn1-c1nonc1N)C1CCCCC1 | 1.6% | -2.0 | -16 | -0.2 | -9 | -12
COc1ccc(C)cc1NS(=O)(=O)c1ccc2c(c1)oc(=O)n2C | 5.3% | -0.9 | -4 | 0.0 | 3 | 7
CCOc1cc(C(=O)OC(C)C(=O)Nc2ccc(S(N)(=O)=O)cc2)ccc1OCC(=O)N1CCOCC1 (stereo not drawn) | -0.7% | -1.5 | 0 | -0.2 | 6 | 2
CN(C(=O)c1cccc(NC(=O)Cc2cccc([N+](=O)[O-])c2)c1)C1CCCCC1 | 3.8% | -2.3 | -13 | 1.4 | 7 | -2
COc1cc(C(=O)NCc2nnc(SCC(=O)Nc3nc4ccc(C)cc4s3)o2)cc(OC)c1OC | -0.3% | 3.7 | -12 | 0.1 | 0 | -8
O=C(Nc1ccc(Cl)cc1)C1CCCN(C2=NS(=O)(=O)c3ccccc32)C1 (stereo not drawn) | 0.0% | -2.4 | -5 | 0.0 | 1 | 1
CCOC(=O)c1cccc(NC(=O)c2cc3sccc3n2C)c1 | -0.4%[38.3 µM] | 6.7 | -11 | 2.4 | -15 | -13
O=C(/C=C/c1cccnc1)c1ccc(NC(=O)c2cccc(Br)c2)cc1 | 16% | 2.7 | -8 | 2.9 | 5 | 4
O=C(NNC(=O)c1cccs1)c1ccc(Cl)nc1 | 3.1% | 1.6 | 1 | 0.3 | -3 | -17
Cc1nnc(Nc2ccc(C(=O)N3CCOCC3)cc2)c2ccccc12 | -0.4% | 1.4 | 0 | 0.1 | -1 | -10
CC(=O)Nc1cccc(-c2ccnc3c2CC(C)(C(=O)Nc2cccc(OC(F)(F)F)c2)O3)c1 (stereo not drawn) | ? | 2.1 | -1 | -0.5 | -5 | 2
CC(=O)Cc1nsc(Nc2ccc3c(c2)OCCO3)n1 | -1.5% | -3.8 | -6 | -0.8 | 5 | 5
Nc1cc(OC(=O)c2c(F)cccc2Cl)nn1S(=O)(=O)c1ccccc1 | 1.2% | -3.7 | -5 | 0.6 | -9 | 1
CCC(C)NC(=O)CN(C1CCCCC1)S(=O)(=O)c1ccc(F)cc1 (stereo not drawn) | 0.7% | -3.5 | 4 | 0.4 | 1 | 2
The listing continues:
SMILES | PINK1 modulator | D2 agonist | D2 PAM | TRPML1 ag | Six1-Eya2 inh | CtBP-E1A inh
CCOc1cc(/C=C2/N=C(C)C(C(=O)OC)=C2O)ccc1O | 3.2% | -2.1 | -4 | 2.2 | -2 | nt
CC1Cc2ccccc2C(=O)N1 (stereo not drawn) | -1.2% | -2.8 | 11 | -0.4 | 3 | 13
CCOC(=O)Cc1csc(NC(=O)CSc2nnc(C3CC3)n2C)n1 | 0.5% | -0.3 | 7 | 2.2 | 2 | 1
CCc1c(C)nc(SCC(=O)c2cccs2)c(C#N)c1C | 6.6%[38.3 µM] | -1.1 | -4 | 3.8 | -13 | -25
COc1ccc(-c2nn(-c3ccccc3)cc2/C=C/C(=O)NCCCn2ccnc2)cc1OC | 2.4% | -6.1 | -6 | -0.7 | -25 | -22
CCc1ccc([C@@H]2C[C@H]3[C@@H](CN2S(=O)(=O)c2ccc(C)cc2)C(=O)C[C@@H](c2ccc(Cl)cc2)N3S(=O)(=O)c2ccc(C)cc2)cc1 | -0.6% | -3.4 | -4 | 11 | -2 | -5
C#CCN(Cc1ccco1)C(=O)c1cc(COc2ccc(F)cc2Cl)on1 | -0.2% | -15 | -8 | 0.7 | 12 | nt
COC(=O)c1cc(NC(=O)CN(c2ccc3c(c2)OCO3)S(C)(=O)=O)ccc1Cl | 0.0% | -0.7 | -41 | -0.3 | -16 | -4
Nc1ccn([C@@H]2O[C@H](CNCc3cnc(N4CCOCC4)s3)[C@@H](O)[C@H]2O)c(=O)n1 | 0.8% | -4.7 | 3 | -0.6 | 5 | -1
COc1ccccc1C(=O)Nc1ccc(C(=O)c2ccccc2)cc1 | 5.9% | -0.6 | 2 | 1.5 | 3 | -8
C#CCOCCOCCOCCNc1nc(N2CCN(C(=O)[C@H](CCCCN)n3cc(CCCC)nn3)CC2)nc(N2CCN(C(=O)[C@H](Cc3ccc(O)cc3)n3cc(CCO)nn3)CC2)n1 | 2.4% | -1.2 | -12 | -0.3 | 4 | 0

D2 agonist: hit marks shown above
SMILES | PINK1 modulator | D2 agonist | D2 PAM | Six1-Eya2 inh | CtBP-E1A inh
Cc1nc2ccccc2c(=O)n1/N=C/c1ccc(O)c(O)c1O | -0.7% | 48* | 10 | -25 | nt

Profiles, quoted from the list.
CC1Cc2ccccc2C(=O)N1 (stereo not drawn) is listed as PINK1 modulator: -1.2%; D2 agonist: -2.8; D2 PAM: 11; TRPML1 ag: -0.4; Six1-Eya2 inh: 3; CtBP-E1A inh: 13
Nc1ccn([C@@H]2O[C@H](CNCc3cnc(N4CCOCC4)s3)[C@@H](O)[C@H]2O)c(=O)n1 is listed as PINK1 modulator: 0.8%; D2 agonist: -4.7; D2 PAM: 3; TRPML1 ag: -0.6; Six1-Eya2 inh: 5; CtBP-E1A inh: -1
